From PubChem
Mtb MbtI inh – MbtI salicylate synthase inhibitors, primary screen, biochemical, fluorescence intensity. actives 0.89% (n = 100,000). P9WFX0. AID 493033, 2011. inhibition, %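 (about 17 µg/mL by stock and volumes)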. purified MbtI enzyme, fluorescence intensity read-out;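 active = above 50% in both replicates, above 80% if mildly self-fluorescent; inactive = the rest, strongly fluorescent compounds included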;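 note: 0% = mean of negative and 100% = mean of positive controls; one replicate is shown; some compounds called inactive have numbers as strong as hits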
Target sequence (P9WFX0 whole entry, looked up): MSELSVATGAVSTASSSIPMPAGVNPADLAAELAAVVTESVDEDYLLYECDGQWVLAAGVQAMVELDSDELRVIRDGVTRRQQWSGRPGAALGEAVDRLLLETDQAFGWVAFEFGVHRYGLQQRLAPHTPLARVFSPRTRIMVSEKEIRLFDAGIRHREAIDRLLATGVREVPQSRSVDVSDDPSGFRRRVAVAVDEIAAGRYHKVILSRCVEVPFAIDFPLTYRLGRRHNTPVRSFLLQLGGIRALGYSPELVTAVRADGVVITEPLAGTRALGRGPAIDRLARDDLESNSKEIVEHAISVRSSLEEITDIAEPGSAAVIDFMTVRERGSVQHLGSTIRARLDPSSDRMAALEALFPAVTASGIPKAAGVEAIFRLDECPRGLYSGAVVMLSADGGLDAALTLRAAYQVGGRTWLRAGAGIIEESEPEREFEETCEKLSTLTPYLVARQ
MenB inh – M. tuberculosis MenB inhibitors, primary screen, biochemical, absorbance. 1,4-dihydroxy-2-naphthoyl-CoA synthase (Mycobacterium tuberculosis (strain ATCC 25618 / …. MenB enzyme assay, absorbance read-out; some hits fall short of the stated cut. inhibition, %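 (about 12 µg/mL by stock and volumes)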. actives 0.43% (n = 100,000). AID 540299, 2011;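 active = mean of two replicates above 30%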;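 note: 0% = no compound and 100% = wells with inactive enzyme; the first replicate is given; strong numbers were not always called active; inactives centre near -10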
Target sequence (P9WNP5 whole entry, looked up): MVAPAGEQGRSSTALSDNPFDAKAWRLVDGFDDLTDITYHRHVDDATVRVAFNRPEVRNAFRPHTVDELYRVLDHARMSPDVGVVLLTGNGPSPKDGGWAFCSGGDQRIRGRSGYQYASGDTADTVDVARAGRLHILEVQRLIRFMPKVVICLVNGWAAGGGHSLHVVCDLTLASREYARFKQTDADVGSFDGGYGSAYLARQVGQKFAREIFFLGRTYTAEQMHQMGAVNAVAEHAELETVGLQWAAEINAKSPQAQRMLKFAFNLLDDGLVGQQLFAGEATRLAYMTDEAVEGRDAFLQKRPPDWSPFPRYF
PV pol inh – poliovirus RdRp elongation inhibitors, primary screen, biochemical, fluorescence polarization, total intensity; AID 588519, 2011; poliovirus polymerase elongation; hits give low values; % elongation, % (compound at 16.7 µg/mL); actives 0.66% (n = 150,000); Genome polyprotein (Poliovirus type 1 (strain Mahoney)), P03300; in the data active = % elongation below about 90%; note: some results filed as inactive read as strong as hits
PV pol inh intensity – further read-out of PV pol inh, marked with its call; % elongation; measured here: total intensity read-out; formula for this scale not given here;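 total fluorescence in place of polarization; lower means less elongation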
An asterisk follows results filed as active; i = inactive; x = not tested or not shown; & = joins results of further samples.

SMILES	Mtb MbtI inh	MenB inh	PV pol inh	PV pol inh intensity
COc1ccc(OC)c(NC(=O)c2cnc3sccn3c2=O)c1	13	-8	103	108
O=C1OC2(CCCCC2)OC(=O)C1=CNc1ccc(Cl)cc1C(F)(F)F	-3	4	103	100
Cc1cc(NS(=O)(=O)c2ccc(NS(=O)(=O)CC34CCC(CC3=O)C4(C)C)cc2)no1 (configuration not stated)	8	-23	103	104
Cc1cc2c(cc1S(=O)(=O)NCCN1CCCCCC1)OCC(=O)N2	14	-3	101	103
Cc1ccc(C2=NN(C(=O)CNc3ccccc3C#N)C(c3ccco3)C2)cc1 (configuration not stated)	7	-22	107	107
Cc1cc(C)c(C(=O)COc2ccccc2O)cc1C	-3	1	99	97
O=C1CSc2ccc(C(=O)NCCN3CCCCCC3)cc2N1	-9	-20	102	104
[O-]/C(=C(\C(=S)Nc1ccccc1)[n+]1ccccc1)c1ccccc1	x	-20	104	105
O=C(CNC(=O)c1ccccc1F)NC1CCN(Cc2ccccc2)CC1	7	-10	104	108
COC(=O)C1=C(O)CSC1=Nc1cccc(C(F)(F)F)c1	4	-3	100	98
Cc1cc(-c2ccc(C)c(S(=O)(=O)Nc3cccc(C(F)(F)F)c3)c2)on1	0	6	99	100
Cn1c(Cc2ccc(Cl)cc2)nc2ccccc21	-5	-32	100	102
CC1CCC(C2NC(=O)c3ccccc3O2)CC1 (configuration not stated)	5	x	104	100
CCc1ccc(N2C(=O)Nc3ccccc3N2O)cc1	1	-17	104	106
Cc1noc(C)c1COc1cc2ccccc2cc1C(=O)NCC(F)(F)F	106	-2	97	96
COc1ccccc1-n1cnc2cc(N=Cc3ccccc3O)ccc21	0	-27	105	105
CCN(CC)c1ccc(C=C(C#N)C#N)c(OC(C)=O)c1	-99	i	79	173
O=C1Nc2ccccc2O/C1=C\c1ccc(C(=O)NCCCN2CCOCC2)cc1	-296	-9	100	103
O=C(NCc1ccc(Cl)cc1)c1ccc2c(=O)n3c(nc2c1)CCCCC3	4	-1	100	102
O=C(O)C1C2CCCCC2=C2CCCCC2C1C(=O)c1ccccc1 (configuration not stated)	0	-19	103	101
COC(=O)c1cc(S(=O)(=O)N2CCCCCC2)c[nH]1	-21	-3	103	99
CC(C)NC(=O)CCn1cnc2onc(-c3ccc(F)cc3)c2c1=O	6	-30	103	101
O=C(Cn1ncc2c1-c1ccccc1OC2)NCc1ccccc1	13	3	102	101
O=C1OCC(c2ccc(Cl)s2)=C1c1cccs1	-7	x	101	107
O=C(Sc1nc(-c2ccccc2)c(-c2ccccc2)[nH]1)c1cccs1	x	-41	107	108
Cc1cccc(CSc2nc(N)cc(=O)[nH]2)c1	13	-4	104	107
CC(=O)NCCN=Cc1c(O)[nH]c(=O)[nH]c1=O	14	-28	103	104
CCOc1ccccc1CNS(=O)(=O)c1cnc[nH]1	-12	15	101	101
COc1ccc(C2C(Oc3ccc(Cl)cc3C)C(=O)N2c2ccc(C)c(C)c2)cc1OC (configuration not stated)	x	-21	110	104
Cc1ccccc1NS(=O)(=O)Cc1ccccc1	x	-27	117	117
CC(CN1CCCCC1)C(=O)NN (configuration not stated)	-6	12	101	97
Cc1cc(NC(=O)c2ccc3c(c2)NC(=O)c2ccccc2S3)ccc1Br	48	-17	104	104
c1ccc2c(c1)Nc1cc3ccccc3cc1O2	46	-7	100	102
O=C(OCc1nc2ccccc2s1)[C@@H]1CCCN1S(=O)(=O)c1ccc(Cl)cc1	1	-4	104	104
O=C(Cc1cccc(C(F)(F)F)c1)Nc1nnc(-c2ccccc2)o1	5	6	98	99
CCOC(=O)C1=C2SCCN2C(=O)C(C#N)C1(C)C (configuration not stated)	9	12	102	100
O=S(=O)(Nc1ccccc1)c1ccc(N2CCCCS2(=O)=O)cc1	-4	2	99	100
Cc1onc(-c2ccccc2Cl)c1C(O)c1ccc(F)cc1 (configuration not stated)	-6	5	100	99
COc1ccc(NC(=O)CCn2c(=O)oc3ccccc32)cc1	-7	-18	101	102
O=C(O)c1ccc(CNCc2ccc(Cl)cc2)cc1	-5	-15	103	94
CC1CCN(CC(=O)Nc2ccc(S(N)(=O)=O)cc2)CC1	-17	-6	107	113
Cc1ccc(CCNc2ccccc2)cn1	42	-9	104	100
Cc1cn2c(CC(=O)O)csc2n1	-6	-17	104	105
O=C(NCc1ccccn1)c1cc2n(n1)C(C(F)(F)F)CC(c1ccco1)N2 (configuration not stated)	-9	-8	102	103
CCOC(=O)CN1C(=O)CC(C[C@@H](O)C2C[C@@H](C)C[C@H](C)C2=O)CC1=O (some centres not stated)	-12	1	99&100	106&104
Cc1cc(Nc2ccccc2)n(C)n1	-2	-15	104	105
Cc1cc(=O)n(-c2ccccc2)n1C	-11&-21	-8&13	100&101	101&102
Cc1cccc(NC(=O)/C(=C\c2ccco2)NC(=O)c2cccs2)c1	-22	-8	103	104
O=C(COC(=O)C1=NN(c2ccccc2)C(=O)CC1)NC1CCCC1	-4	-3	108	107
COc1cc(OC)cc(C(=O)NCCSc2ccccc2)c1	-1	-3	100	107
O=C(O)C1CCCN(c2ncnc3c2sc2cccc(F)c23)C1 (configuration not stated)	-13	8	103	110
Cc1cc(C)nc(SCC(=O)OCc2nnc(-c3ccccc3)o2)n1	0	-2	103	105
Cc1ccc(C)c(N2CCN(C(=O)Cn3ncc4ccccc43)CC2)c1	-4	-50	107	101
CCCN(C(=O)C1CC1)c1nnc(-c2ccc(Cl)cc2)s1	-6	-38	104	99
O=C1NC2(CCCCCC2)C(=O)N1CCOc1cccc(Cl)c1	-10	-38	105	110
N#Cc1c(N)sc(=S)c2c1CCCC2	37	-53	91	89
CCn1c(-c2cc(C)n(C)n2)n[nH]c1=S	74	-33	103	106
Cc1ccc(C)c(S(=O)(=O)N2CCN(C(=O)[C@H](C)N3C(=O)C4CC=CCC4C3=O)CC2)c1 (some centres not stated)	-5	-8	105	111
Cc1ccc(C(=O)Nc2cc3ccccc3oc2=O)cc1	86	2	99	95
Cc1sc(N=Nc2c(O)[nH]c(=O)[nH]c2=O)c(C#N)c1C	14	-195	96	83

As entered above:
Under MenB inh, `CCn1c(-c2cc(C)n(C)n2)n[nH]c1=S` shows -33
Under MenB inh, `O=C(O)C1CCCN(c2ncnc3c2sc2cccc(F)c23)C1` (configuration not stated) shows 8

Two entries from above, as a markdown table:
| canonical_smiles | Mtb MbtI inh | MenB inh | PV pol inh | PV pol inh intensity |
| --- | --- | --- | --- | --- |
| Cc1cccc(CSc2nc(N)cc(=O)[nH]2)c1 | 13 | -4 | 104 | 107 |
| CC(=O)NCCN=Cc1c(O)[nH]c(=O)[nH]c1=O | 14 | -28 | 103 | 104 |

(more compounds)
SMILES	Mtb MbtI inh	MenB inh	PV pol inh	PV pol inh intensity
COc1cccc2s/c(=N/C(=S)NC(=O)c3ccc(C)cc3)n(C)c12	11	-19	99	95
CC1CCCCN1CCNC(=O)Cn1ncc2c1-c1ccccc1OC2 (configuration not stated)	-7	-28	106	107
COC(=O)/C=C1\S/C(=N\c2ccccn2)N(c2ccc(Cl)cc2)C1=O	-10	-21	106	114
Cc1ccc(S(=O)(=O)[N-]c2nc3ccccc3nc2-n2cc[n+](C)c2)cc1	2	-30	104	97
CC1Cc2ccccc2N1C(=O)c1ccc(S(=O)(=O)N2CCCCC2)cc1 (configuration not stated)	-8	x	102	101
CCOc1ccccc1OCCC(=O)O	6	10	108	101
O=C(Cn1c(=O)oc2cc(Cl)ccc21)N1CCN(c2ccccc2)CC1	11	-16	99	98
O=C(CN1CCN(S(=O)(=O)c2ccc(F)cc2)CC1)Nc1ccc(F)c(F)c1	-39	-8	102	103
O=C(Nc1ccc(Cl)cc1C(=O)Nc1cccc(Cl)c1)c1ccco1	2	-25	100	103
COc1cccc(N2CCN(C(=O)c3cc4c(Cl)nc5ccc(C)cc5c4s3)CC2)c1	-3	-17	102	103
CCOC(=O)N1CCN(S(=O)(=O)N2CCC(C(=O)O)CC2)CC1	-6	-1	100	102
CCOc1ccc(N=Cc2sc3ccccc3c2O)cc1	-15	-68	75	178
OC1(Cc2ccccc2)CCCCC1	-1	26	99	104
COc1cccc(C2CC(c3cccs3)=NN2C(=O)CSc2nncn2C)c1OC (configuration not stated)	13	-15	104	96
Cc1nc(NNC(=O)c2ccccc2)cc(-c2ccccc2)n1	7	-30	102	99
Cc1ccc(C)c(S(=O)(=O)NCc2ccc(C(=O)N3CCN(C)CC3)cc2)c1	16	1	99	100
N#CC1(NC(=O)COC(=O)CSc2ccc(F)cc2)CCCCC1	5	-3	105	110
CCN1/C(=C\C=C2/C(=O)NC(=O)N(C)C2=O)Sc2ccccc21	20	-19	x	x
O=C(OCC(=O)N1CCCC1)c1ccc(Cl)c(Cl)c1	1	x	102	103
O=C(CSc1nnc(Cc2ccccc2)n1Cc1ccccc1)NCc1ccco1	-11	-6	99	100
O=C(Nc1cccnc1)c1ccc(COCC(F)(F)F)cc1	-5	4	101	102
NNc1nc2ccccc2s1	-7	x	104	104
CC1(C)S[C@@H]2[C@H](NC(=O)[C@H](N)c3ccccc3)C(=O)N2[C@H]1C(=O)O	-2&-14	1&3	98&100	102&99
COC(=O)c1sc(=S)n(-c2ccc(C)cc2)c1N	4	-33	105	99
CC(=O)Nc1ccc(S(=O)(=O)n2cnc3ccccc32)cc1	x	-1	98	97
O=c1[nH]sc2ccccc12	105	51*	98	84
COc1cccc(-n2cc(C(=O)Nc3cccnc3)c3ccccc3c2=O)c1	-15	-24	101	101
N#CCn1c2ccc(Cl)cc2c2nc3ccccc3nc21	5	-87	101	100
O=C(CNC(=O)c1ccc2ccccc2c1)OCn1nnc2ccccc2c1=O	19	-24	100	100
Cc1noc2ncnc(NC(C)(C)CCO)c12	-7	-20	104	104
COC(=O)c1ccc(C)c(N(CCO)CCO)c1	x	-5	107	113
CC1=CC(C)C(/C=N/n2cnnc2)C(C)C1 (configuration not stated)	-1	-15	107	107
O=C(CSc1nc2ccccc2c2nc3ccccc3n12)c1ccccc1	-5	6	103	103
C#CCn1c(=NC(=O)CSCC(=O)Nc2cc(C)on2)sc2ccccc21	7	-15	102	106
CCc1c(C)n([O-])c2c([n+]1=O)CCCC2	17	-11	99	103
O=C(c1cc(=O)[nH]c2ccccc12)N1CCc2ccccc2C1	83	-4	106	109
Cc1nnc(SCC(=O)N(c2ccccc2)c2ccccc2)nc1C	5	18	101	100
O=C(O)c1cc(Cl)nc(Cl)c1	-20	x	98	102
NC(=O)CCN(C1CCCCC1)S(=O)(=O)c1cccc2nsnc12	13	-39	101	101
Cc1cc2nc(C)n(CC(=O)N(C)c3ccccc3)c2cc1C	-6	-24	103	104
CCOC(=O)/C=C1\NC(C)(C)Cc2cc(OC)c(OC)cc21	22	1	99	103
COc1ccc(S(=O)(=O)CCC(=O)Nc2ccc(OC(F)(F)F)cc2)cc1	-7	-2	105	103
COc1cccc(NC(=O)c2nn(C)c3c2COc2ccccc2-3)c1	-15	2	100	103
CC(C)CNP(=O)(OC1CC(C)CCC1C(C)C)c1ccccc1 (configuration not stated)	-4	-14	103	105
CC(C)c1cc(NCc2ccccn2)n2c(nc3ccccc32)c1C#N	49	-4	98	103

19 entries from above, with values under each structure:
Under each structure: Mtb MbtI inh | MenB inh | PV pol inh | PV pol inh intensity
COC(=O)c1sc(=S)n(-c2ccc(C)cc2)c1N
 : 4 | -33 | 105 | 99
CC(=O)Nc1ccc(S(=O)(=O)n2cnc3ccccc32)cc1
 : x | -1 | 98 | 97
O=c1[nH]sc2ccccc12
 : 105 | 51* | 98 | 84
COc1cccc(-n2cc(C(=O)Nc3cccnc3)c3ccccc3c2=O)c1
 : -15 | -24 | 101 | 101
N#CCn1c2ccc(Cl)cc2c2nc3ccccc3nc21
 : 5 | -87 | 101 | 100
O=C(CNC(=O)c1ccc2ccccc2c1)OCn1nnc2ccccc2c1=O
 : 19 | -24 | 100 | 100
Cc1noc2ncnc(NC(C)(C)CCO)c12
 : -7 | -20 | 104 | 104
COC(=O)c1ccc(C)c(N(CCO)CCO)c1
 : x | -5 | 107 | 113
CC1=CC(C)C(/C=N/n2cnnc2)C(C)C1 (configuration not stated)
 : -1 | -15 | 107 | 107
O=C(CSc1nc2ccccc2c2nc3ccccc3n12)c1ccccc1
 : -5 | 6 | 103 | 103
C#CCn1c(=NC(=O)CSCC(=O)Nc2cc(C)on2)sc2ccccc21
 : 7 | -15 | 102 | 106
CCc1c(C)n([O-])c2c([n+]1=O)CCCC2
 : 17 | -11 | 99 | 103
O=C(c1cc(=O)[nH]c2ccccc12)N1CCc2ccccc2C1
 : 83 | -4 | 106 | 109
Cc1nnc(SCC(=O)N(c2ccccc2)c2ccccc2)nc1C
 : 5 | 18 | 101 | 100
O=C(O)c1cc(Cl)nc(Cl)c1
 : -20 | x | 98 | 102
NC(=O)CCN(C1CCCCC1)S(=O)(=O)c1cccc2nsnc12
 : 13 | -39 | 101 | 101
Cc1cc2nc(C)n(CC(=O)N(C)c3ccccc3)c2cc1C
 : -6 | -24 | 103 | 104
CCOC(=O)/C=C1\NC(C)(C)Cc2cc(OC)c(OC)cc21
 : 22 | 1 | 99 | 103
COc1ccc(S(=O)(=O)CCC(=O)Nc2ccc(OC(F)(F)F)cc2)cc1
 : -7 | -2 | 105 | 103
